Bioassay records deposited in PubChem by ICCB-Longwood Screening Facility, Harvard Medical School.
HCMV UL50-53 inh: disrupts HCMV UL50-UL53 complex binding. inhibition, % (test concentration not listed). hit rate 0.15% among 190,000. HTRF UL50-UL53 interaction, normalized percent inhibition. AID 1918969;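 active means both replicates at 50% or more, plus weaker picks with an unusually low signal ratio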;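 further: stock transfer was 100 nL into about 20 µL; 0% = negative control wells and 100% = wells with untagged competitor protein; inactives centre near -12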
Sa growth inh: S. aureus growth inhibition; S. aureus RN4220 growth, OD600, 20 h, 42 °C; hits give low values; relative growth, % (no concentration beside the values); hit rate 0.53% among 170,000;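 active means growth at 42 °C up to 50% and 20 or more points under that at 30 °C, or under 10% at both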;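 further: 300 nL library stock went into each well; scaled to the means of positive and negative controls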
GIV Gai3 FP: GIV-Galpha-i interaction inhibition; P08753; Galpha-i3/FITC-GIV peptide fluorescence polarization, 90 min; hits give low values; scaled: aluminum fluoride 0%, vehicle 100%; percent of control (FP), % (no concentration beside the values); hit rate 0.42% among 210,000; AID 1224905;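 active means replicate mean at 85% of control or lower, very high polarization wells dropped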;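 further: wells of about 15 µL received 100 nL stock; the first replicate is given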
Target sequence (P08753 whole entry, looked up): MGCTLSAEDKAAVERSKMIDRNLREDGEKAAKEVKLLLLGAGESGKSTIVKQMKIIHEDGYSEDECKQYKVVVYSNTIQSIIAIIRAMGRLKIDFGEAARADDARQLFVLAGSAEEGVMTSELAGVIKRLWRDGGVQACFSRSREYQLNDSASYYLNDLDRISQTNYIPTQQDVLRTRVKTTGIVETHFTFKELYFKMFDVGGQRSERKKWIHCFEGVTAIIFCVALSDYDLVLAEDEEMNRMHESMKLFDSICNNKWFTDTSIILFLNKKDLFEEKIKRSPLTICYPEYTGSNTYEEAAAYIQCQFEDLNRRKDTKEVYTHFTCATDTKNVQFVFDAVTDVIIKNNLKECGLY
Sa growth inh second temp: also measured in Sa growth inh; calls as there; relative growth, %; measured here: growth at 30 °C;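 optical density after 20 h as mean of two plates; 100% = untreated growth and lower means inhibition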
Numbers without * were called inactive; . = no result given; & = joins results of further samples.

SMILES	HCMV UL50-53 inh	Sa growth inh	Sa growth inh second temp	GIV Gai3 FP
COc1ccc(-c2ccc(CNC3CCCC3)o2)cc1Cl	-36	.	.	105
Cc1cccc(-c2nc3scc(CCNC(=O)C(C)(C)C)n3n2)c1	-20	107	88	109
Cc1cccc(OCCn2c(SCC(=O)O)nc3ccccc32)c1	.	107	81	98
COc1cccc2cc(C(=O)C3=C(O)C(=O)N(CCCN4CCOCC4)C3c3ccc(C)cc3)oc12 (configuration not stated)	-3	104	99	106
COc1ccc(CCN2CC(C#N)=C3c4cc(OC)c(OC)cc4CCN3C2)cc1OC	-52	97	80	107
O=C1C(c2ccc(F)cc2)N(CCc2ccc(Cl)cc2)C(=O)CN1C1CCCCC1 (configuration not stated)	.	107	82	105
O=C(CCOc1ccccc1)N(Cc1cccnc1)c1nc2c(Cl)cccc2s1	.	99	92	99
COC(=O)CC1=CC(=O)N(Cc2ccc(F)cc2Cl)c2cc(C)c(C)cc2N1	-12	.	.	108
COc1ccc(N2CCN(C(=O)Nc3cccc(C(F)(F)F)c3)CC2)cc1	13	113	101	102
Cc1ccc(NC(=O)Cn2cc3c(n2)CCCC3)c(C)c1	-22	100	82	100
CCOC(=O)N1CCc2ccccc21	-14	103	80	103
CCC(=O)Nc1nc2c(C)cc(NC(=O)Nc3ccc(CC)cc3)cc2s1	-2	.	.	97
NC(=O)C1CCCN1S(=O)(=O)c1ccc(F)cc1 (configuration not stated)	5	90	89	104
CCN(/N=C\c1ccccc1O)C(=S)NC	-16	98	82	92
CCn1nc(C)c(CCN(C)C(=O)NCC2CCCO2)c1C (configuration not stated)	8	.	.	107

One compound at a time (already shown):
CCC(=O)Nc1nc2c(C)cc(NC(=O)Nc3ccc(CC)cc3)cc2s1 in the list: HCMV UL50-53 inh = -2; Sa growth inh = .; Sa growth inh second temp = .; GIV Gai3 FP = 97
COC(=O)CC1=CC(=O)N(Cc2ccc(F)cc2Cl)c2cc(C)c(C)cc2N1 in the list: HCMV UL50-53 inh = -12; Sa growth inh = .; Sa growth inh second temp = .; GIV Gai3 FP = 108

Remaining list, next part.
SMILES	HCMV UL50-53 inh	Sa growth inh	Sa growth inh second temp	GIV Gai3 FP
O=C(Cn1cnc2onc(-c3ccc(Cl)cc3)c2c1=O)N1CCc2ccccc21	-23	.	.	104
Cc1c(C)c2c(ccc3c(C)cc(=O)oc32)oc1=O	-17	109	88	100
COc1ccc(C(CC(=O)N2CCN(Cc3ccccc3)CC2)n2cccc2)cc1 (configuration not stated)	-12	101	85	106
O=C(NC(=S)Nc1ncccn1)c1cccs1	-22	95	86	.
Cc1ccc(NC(=O)c2cnc(N3CCCC3)nc2C)cc1F	.	81	86	105
CCOc1ccccc1NC(=O)N1CCC(n2c(C)nc3cccnc32)CC1	.	101	90	106
CCN(CC)S(=O)(=O)c1nnc(NC(=O)COc2ccccc2)s1	13	108	97	98
NC(N)=N[C@@H](CCC(=O)O)C(=O)O	-54&-54&-14	.	.	100
c1ccc(Cn2c(-c3ccccc3)nc3ccccc32)cc1	.	85	82	101
CCOC(=O)/C(C#N)=C/Nc1nc(CN2CCCCC2)cs1	-23	83	96	.
O=C(Cn1c(=O)n(Cc2ccc3c(c2)OCO3)c(=O)c2oc3ccccc3c21)Nc1ccccc1	.	120	84	105
CC(=O)NC1(C(F)(F)F)C(=O)Nc2c1c(=O)[nH]c(=O)n2Cc1ccco1 (configuration not stated)	5	86	96	106
Cc1c(Cl)cccc1Nc1ccccc1C(=O)O	-36&-15&-22	88	58	95
CN1CCN(/N=C/c2ccc(-c3ccccc3)cc2)CC1	-59	102	91	.
COc1cccc(CNC(=O)c2ccc3nc[nH]c3c2)c1	-18	112	95	.

The list goes on, overlapping the part above by 5 compounds.
SMILES	HCMV UL50-53 inh	Sa growth inh	Sa growth inh second temp	GIV Gai3 FP
O=C(Cn1c(=O)n(Cc2ccc3c(c2)OCO3)c(=O)c2oc3ccccc3c21)Nc1ccccc1	.	120	84	105
CC(=O)NC1(C(F)(F)F)C(=O)Nc2c1c(=O)[nH]c(=O)n2Cc1ccco1 (configuration not stated)	5	86	96	106
Cc1c(Cl)cccc1Nc1ccccc1C(=O)O	-36&-15&-22	88	58	95
CN1CCN(/N=C/c2ccc(-c3ccccc3)cc2)CC1	-59	102	91	.
COc1cccc(CNC(=O)c2ccc3nc[nH]c3c2)c1	-18	112	95	.
Cc1ccc(Oc2ccc3c(c2)C(=O)N(CC(=O)O)C3=O)cc1	.	82	81	94
CCN(C(=O)Nc1ccc(OC)c(OC)c1)c1nc(-c2ccc(Br)cc2)cs1	2	.	.	105
CCOCC(=O)Nc1cccc(C(F)(F)F)c1	-4	118	90	107
Cc1ccc(-c2nnc(Nc3cccc(Br)c3)c3ccccc23)cc1S(=O)(=O)N1CCCCC1	-10	112	94	106
CCOc1ccc(-c2nonc2NC(=O)COc2ccc(Cl)c(C)c2)cc1C	-5	.	.	109
CCOc1ccc(C(=O)OCC(=O)Nc2cccc(Cl)c2)cc1	-10	83	101	.
COC(=O)Cc1nc(NC(=O)c2ccc(OC)cc2)sc1C	-26	95	89	103
Cc1ccc(N/C=C/C(=O)c2ccc(C)o2)c(O)c1	-36	122	99	190
OC(COc1ccc(Br)cc1)CN1CCOCC1 (configuration not stated)	-17	118	95	102
N#CC1=C2SCN(C3CCCCC3)CN2C(=O)CC1c1ccc(F)cc1 (configuration not stated)	-27	98	68	107
COc1cc(/C=c2\sc3nc(-c4ccco4)nn3c2=O)cc(Br)c1OC(C)=O	5	104	86	105
COC(=O)c1oc2ccc(Cl)cc2c1C	-14	116	106	106
O=C(NC1CCN(Cc2ccccc2)CC1)c1cc(-c2ccco2)nc2ccccc12	-17	103	70	.
CC1(C)CC(=O)C2=C(C1)N(Cc1cccnc1)C(=O)NC2(C(F)(F)F)C(F)(F)F	-6	98	94	102
O=S(=O)(Nc1cccnc1)c1ccccc1	-11	88	88	.
Cc1ccccc1Cc1c(C)nc2c(-c3nc(-c4ccccc4C)no3)cnn2c1C	-6	.	.	149
CCOC(=O)CC(=O)c1sc2c(c1N)c(=O)[nH]c(=O)n2-c1ccc(OC)cc1	-9	110	84	.
C/C(=N\NC(N)=O)c1ccc(-n2ccnc2)cc1	-53	88	86	.
C[C@H](NC(=O)c1ccco1)C(=O)Nc1nc(-c2ccccn2)cs1	-14	156	84	.
COc1cccc(CNC(=O)Cn2cc3c(n2)-c2c(oc(C(=O)N4CCCC4)c2C)CC3)c1	.	122	97	107
CCOC(=O)C1=C(C)NC(C)=C(C(=O)OCC)C1C(=O)OCC(=O)N1c2ccccc2CC1C (configuration not stated)	0	98	94	.
O=C(NCCn1c(CCc2ccccc2)nc2ccccc21)NCc1ccc(F)cc1	-18	.	.	105
CCOC(=O)c1[nH]c(C)c(C(=O)OCc2nc3ccc(Cl)cc3n2CCO)c1C	-5	100	96	.
Cc1ccc(NS(=O)(=O)c2c(C)nc3sc4cc(C)ccc4n3c2=O)c(C)c1	-47	.	.	106
Cc1nc2cccnc2n1-c1cc(C(=O)NCCc2c[nH]c3ccc(Cl)cc23)ccc1Cl	-13	.	.	112
O=C(O)CNC(=O)c1ccc2c(c1)OCO2	-6	93	95	.
Cn1nnnc1SCSc1nnnn1C	-43	90	89	101
COC(=O)CNC(=O)c1ccc(NC(=O)Nc2cccc(C)c2)cc1	-6	87	86	.
Cc1ccc(OCC(=O)OCc2cc(=O)n3nc(C4CC4)sc3n2)cc1	.	77	96	106
CN1c2ccccc2-c2nc3ccccc3n2C1c1cccs1 (configuration not stated)	-10	97	70	107
CC1CCc2c(sc(NC(=O)c3ccccc3)c2C(=O)N2CCCCC2)C1 (configuration not stated)	-8	99	95	.
CC1CC(NC(=O)c2c(O)nc3ccccn3c2=O)CC(C)(C)C1 (configuration not stated)	-30	74	80	108
COc1ccc(CCNC(=O)CC(c2ccccc2)c2cccc(C)c2O)cc1OC (configuration not stated)	.	110	70	101
CCc1nn(Cc2ccc(Cl)cc2)c(=O)c2cc3cc(C)ccc3n12	-24	111	91	104
CC1CCCC(C)N1C(=O)NC1CCCCC1 (configuration not stated)	-12	99	97	106
CCn1c(-c2cc(C(=O)c3ccccc3O)c[nH]2)nc2ccccc21	-18	61	62	.
O=C1CC(c2ccncc2)c2cc3c(cc2N1)OCO3 (configuration not stated)	19	.	.	99
COc1ccc(NC(=O)CN2CCN(c3ccccc3F)CC2)c(OC)c1	.	91	90	101
COc1ccc(NC(=O)CSc2cn(CC(=O)N3CCOCC3)c3ccccc23)cc1OC	.	116	90	107
CCOC(=O)c1c(Nc2ccc(C)c(C)c2)nnc(-c2ccccc2)c1-c1ccccc1	-24	107	82	105
Cc1csc(=O)n1CCC(=O)OCc1nnc(-c2ccccc2)o1	-16	82	93	.
COc1ccc2c(C)cc(Cl)nc2c1	-20	114	89	.
O=c1cc(NCc2ccccc2)[nH]c(=O)[nH]1	-6	88	44	100
CC(CNC(=O)C1CCN(c2nc3ccccc3[nH]2)CC1)c1ccccc1 (configuration not stated)	-20	.	.	97
COc1ccc(/C=C/C(=O)NCc2ccccc2)cc1	-4	106	103	.
COc1ccc(-n2cc(C(=O)NCCCN3CCCC3=O)nn2)cc1	-22	78	82	101
CC(=O)Nc1ccc(C(=O)NC(=NCc2ccncc2)Nc2cccc(C(F)(F)F)c2)cc1	10	.	.	102
COc1cc(NC(=O)Cn2c(=O)oc3cc(S(=O)(=O)N4CCCCCC4)ccc32)cc(OC)c1	.	128	87	97
COc1ccc(C2C(C(=O)OC3CCCC3)=C(C)NC3=C2C(=O)CC(c2ccc(OC)c(OC)c2)C3)c(OC)c1 (configuration not stated)	-6	.	.	107
COc1cn(-c2ccccc2)nc1C(=O)NCc1ccccc1CN1CCCC1	-18	81	83	.
Cn1c(=O)c2cn3c(c2n(C)c1=O)C(c1ccc(O)c(O)c1)Nc1ccccc1-3 (configuration not stated)	2	.	.	110
O=c1[nH]c(=O)n([C@H]2C[C@H](O)[C@@H](CO)O2)cc1I	-19&-8	88	89	106
COC(=O)c1ccc(CSCc2ccc(C(=O)OC)o2)o1	-21	83	93	.
Cc1ccc(S(=O)(=O)Nc2cc(Sc3ncn[nH]3)c(O)cc2C)cc1	-2	119	90	.
COc1ccc(-c2n[nH]c(=S)o2)cc1	3	42	35	102
COc1ccc(C2C(C(=O)NCc3ccco3)c3ccccc3C(=O)N2C)cc1 (configuration not stated)	-23	96	87	103
S=C(NCCN1CCOCC1)Nc1ccc(-c2nnc3n2CCCCC3)cc1	7	87	91	.
COC(=O)C1(OC)COc2ccccc2O1 (configuration not stated)	-7	110	106	106
CCOC(=O)C1=C(C)Nc2ccccc2N/C1=N\S(=O)(=O)c1ccccc1	-21	89	92	.
CCCNC(=O)c1c(O)nc2ccccn2c1=O	-20	84	74	100

Other structures.
SMILES	HCMV UL50-53 inh	Sa growth inh	Sa growth inh second temp	GIV Gai3 FP
CC(=O)NO	-15	93	86	.
Cc1cccc(NC(=O)Cn2c(=O)sc3ccccc32)c1	6	98	106	102
Cc1ccc(CN2CC34C=CC(O3)C(C(=O)O)C4C2=O)cc1 (configuration not stated)	-1	111	95	104
CCN(C(=O)C1CCC(=O)N1S(=O)(=O)c1ccc(F)cc1)c1ccccc1 (configuration not stated)	-8	.	.	104
O=C1CC(CS(=O)(=O)c2ccc(C(F)(F)F)cn2)=NN1c1ccccc1	-9	103	82	104
CCCCC(=O)Nc1nnc(S(=O)(=O)N(C)Cc2ccccc2)s1	-13	113	85	102
COc1ccccc1CNC(=O)C(Cc1ccccc1)NS(=O)(=O)c1ccc2c(c1)CCN2C(C)=O (configuration not stated)	-19	113	85	103
CC(=O)NC(=O)/C(C#N)=C/N1CCOCC1	2	98	99	105
CN(Cc1ccccc1F)C(=O)c1cccc(S(=O)(=O)N(C)C)c1	9	97	91	.
Cc1ccc2onc(CNC(=O)Nc3ccccc3C#N)c2c1	.	89	87	105
CCOc1ccc(CCNC(=O)c2cc3ccccn3n2)cc1	-31	.	.	101
O=C(COc1cc2ccccc2cc1C(=O)N1CCOCC1)Nc1ccc2c(c1)OCCO2	-25	83	100	.
COc1ccc(-c2nn(C)c3sc(C(=O)O)cc23)cc1OC	-17&-20	100	88	96&101
CCN(CC)C(=O)CSCc1cnn(-c2ccccc2)c1-n1cccc1	2	108	84	99
COc1ccccc1CCNC(=O)C(C)Sc1nc(-c2ccccc2)cc(C(F)(F)F)n1 (configuration not stated)	14	105	103	98
CCCOc1ccc(C2/C(=C(/O)c3ccc(C)c(F)c3)C(=O)C(=O)N2Cc2ccco2)cc1 (configuration not stated)	-18	92	98	103
CC(C)c1ccc(NC(=O)CSc2n[nH]c(=O)n2C2CC2)cc1	22	111	100	100
O=c1ccc(-c2ccc(S(=O)(=O)NCc3ccccc3)s2)n[nH]1	-53	121	80	98
NC(=O)CSc1nnc(C2CC2)n1CC1CCCO1 (configuration not stated)	-12	94	97	100
C=CCNCc1ccc(-c2cccc(Cl)c2C)o1	1	125	75	106
CCOC(=O)c1c(C)[nH]c(C)c1C(=O)CSc1nnc2oc3ccc(S(=O)(=O)N(C)C)cc3n12	-3	84	94	.
O=C(Oc1ccc(Br)cc1)c1cc(-c2ccc3c(c2)OCCO3)on1	-22	.	.	101
OCc1cn(Cc2ccccc2Cl)c2ccccc12	11	118	94	99

No enrichment for hits; any-hit rate near 0.83%.
